Source: PubChem
MLL AF4-AF9 inh: blocks AF4 peptide binding to human AF9; P42568; AlphaScreen, biotin-AF4 peptide binding to FLAG-AF9; inhibition, % at 10 µM; actives 0.47% (n = 350,000);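 active = every replicate reaching a set inhibition limit, whatever the replicate mean, cut at about 25% in these data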;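 note: 0% = plate neutral control median and 100% = total signal loss; the record names both 10 and 1 µM as test concentration; the first replicate is given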
Target sequence (P42568 whole entry, looked up): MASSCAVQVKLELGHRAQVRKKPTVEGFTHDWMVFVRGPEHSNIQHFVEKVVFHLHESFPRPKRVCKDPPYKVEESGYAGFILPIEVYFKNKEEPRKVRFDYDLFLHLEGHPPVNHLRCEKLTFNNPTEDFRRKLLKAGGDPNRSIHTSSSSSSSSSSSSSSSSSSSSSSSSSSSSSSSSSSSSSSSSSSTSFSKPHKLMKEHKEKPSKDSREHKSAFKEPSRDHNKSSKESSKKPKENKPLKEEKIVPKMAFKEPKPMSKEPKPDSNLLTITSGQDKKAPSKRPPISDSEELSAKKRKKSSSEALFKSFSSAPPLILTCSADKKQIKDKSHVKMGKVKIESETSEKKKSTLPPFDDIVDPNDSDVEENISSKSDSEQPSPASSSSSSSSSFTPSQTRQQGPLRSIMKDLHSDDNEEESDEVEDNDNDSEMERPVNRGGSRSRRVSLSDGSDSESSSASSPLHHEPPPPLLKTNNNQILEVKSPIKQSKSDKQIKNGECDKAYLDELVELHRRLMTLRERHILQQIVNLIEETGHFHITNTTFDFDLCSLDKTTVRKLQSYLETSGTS
Ecoli rRNA inh: inhibits bacterial ribosomal RNA function over humanized ribosomes; E. coli WT GFP vs humanized-ribosome RFP mutants, fluorescence, 24 h; stronger effect = lower value; DMSO median 0, no signal -100; GFP signal change (wild-type ribosome), % (concentration not given with the values); AID 720706; actives 1.6% (n = 350,000);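 active = significant combined selectivity score with lowered wild-type GFP, culture density cut under 30%, mutant RFP and density less affected; inactive = any of these conditions unmet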; note: one replicate is shown; some compounds called inactive have numbers as strong as hits
FGF22 binding: shifts melting point of recombinant human FGF22. Q9HCT0. calls only at 9.99 µM. recombinant FGF22 thermal shift, SYPRO orange fluorescence; percent of sucrose octasulfate shift, DMSO zero. actives 1.5% (n = 340,000);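 active = melting point raised past a set limit in the mean and every replicate; three in four hits are not shown here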
Target sequence (Q9HCT0 whole entry, looked up): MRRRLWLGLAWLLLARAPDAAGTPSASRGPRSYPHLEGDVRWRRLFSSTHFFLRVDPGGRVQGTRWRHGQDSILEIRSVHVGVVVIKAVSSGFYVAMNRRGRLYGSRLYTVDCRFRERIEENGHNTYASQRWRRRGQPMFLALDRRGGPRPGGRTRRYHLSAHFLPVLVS
Ecoli rRNA inh OD600: recorded beside Ecoli rRNA inh, whose call it bears; OD600 change, %; measured here: OD600 growth;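 optical density of the mix in the first replicate; 0 = DMSO median and -100 = no signal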
Ecoli rRNA inh RFP: recorded beside Ecoli rRNA inh, whose call it bears; RFP signal change, %; measured here: RFP humanized mutant strains;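 first replicate; 0 = DMSO median and -100 = no signal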
Active calls of the source: *; i = inactive; / = not tested or not shown; + = active, no number; & = joins results of further samples. The list is partial. The share of hits here may be higher or lower than overall.

MLL AF4-AF9 inh	Ecoli rRNA inh	Ecoli rRNA inh OD600	Ecoli rRNA inh RFP	FGF22 binding	canonical_smiles
-2.8	3	13	1.7	i	C[C@H](CO)N1C[C@H](C)[C@@H](CN(C)Cc2ccc(C(=O)O)cc2)Oc2ccc(NC(=O)C3CCCCC3)cc2C1=O
-3.2	5	16	3.3	i	N#CC(c1c(Cl)cccc1N1CCCCC1)N1CCCCC1 (stereo not given)
-1.3	2	3	0.1	i	NCC[C@@H]1CC[C@@H](NC(=O)Nc2ccc(F)cc2)[C@@H](CO)O1
-8.3	-30	-60	-9.9	i	COc1ccc(-c2ccc(C(=O)NCC3CC3)c3occc23)c(C)c1
-2.8	-2	5	1.2	i	Cc1noc(C)c1S(=O)(=O)Nc1ccc2c(c1)C(=O)N([C@H](C)CO)C[C@H](C)[C@@H](CN(C)C(=O)Nc1cccc3ccccc13)OCCCC[C@H](C)O2
-7.2	3	7	1.0	i	C[C@@H]1CN([C@H](C)CO)C(=O)c2cc(C3=CCCCC3)cnc2O[C@@H]1CN(C)C(=O)c1cccc(F)c1
-3.4	2	3	-1.0	i	CCCNC(=O)C[C@H]1CC[C@H]2[C@@H](COc3ccc(NC(=O)C4CCCC4)cc3C(=O)N2C)O1
6.1	1	11	-1.0	i	CCC(=O)N1CC2(CCN(S(C)(=O)=O)CC2)c2c(n(C)c3cc(OC)ccc23)[C@@H]1CO
2.6	12	17	6.6	i	O=S(=O)(Nc1nc(-c2ccco2)c(-c2ccco2)s1)c1ccc(F)cc1F
-0.8	6	7	-0.7	i	CCCC#Cc1cnc2c(c1)C(=O)N([C@H](C)CO)C[C@H](C)[C@@H](CN(C)C)O2
-2.7	-1	2	-0.2	i	CO[C@H]1CN(C)C(=O)c2cc(NS(C)(=O)=O)ccc2OC[C@H](C)N(S(C)(=O)=O)C[C@H]1C
-3.4	3	-24	22	+	COc1cccc(C#Cc2ccc([C@H]3[C@@H](CO)N4C(=O)CN(C(=O)c5ccccc5)C[C@@H]34)cc2)c1
-2.4	-3	-5	0.0	i	CCCNC(=O)N(C)C[C@H]1Oc2cc(C#CC3CC3)ccc2S(=O)(=O)N([C@@H](C)CO)C[C@@H]1C
0.7	-5	-29	4.7	i	COC(=O)C[C@@H]1CC[C@H]2[C@H](COc3ccc(NS(=O)(=O)c4cccc(F)c4)cc3C(=O)N2C)O1
5.7	1	5	-3.7	i	C[C@@H]1CCCCO[C@H](CN(C)C)[C@@H](C)CN([C@@H](C)CO)C(=O)c2cc(NC(=O)Nc3ccc4c(c3)OCO4)ccc2O1
-0.5	-5	0	7.0	i	C[C@H](CO)N1C[C@H](C)[C@H](CN(C)Cc2ccc3c(c2)OCO3)Oc2ncc(-c3cccc(F)c3)cc2C1=O
0.4	2	-1	-3.2	i	Cc1ccc(C)c(S(=O)(=O)N2CCN(C(=O)CN3C(=O)C4CC=CCC4C3=O)CC2)c1 (stereo not given)
0.8	-7	-6	7.0	i	O=C(NCC1CCN(C(=O)C(=O)c2cc3ccccc3o2)CC1)c1ccc2c(c1)OCC2
-1.6	-7	-2	0.5	i	O=C(Nc1cccc(F)c1)N[C@@H]1CC[C@H](CCn2cc(Cc3ccccc3)nn2)O[C@H]1CO
-0.2	2	8	-2.5	i	CN(C)C(=O)[C@@H]1[C@@H](CO)[C@@H]2Cn3c(cccc3=O)[C@@H]2N1CCc1ccccc1
-1.0	-3	-2	0.1	i	C[C@H]1CN([C@@H](C)CO)C(=O)c2cc(NC(=O)c3ccncc3)ccc2O[C@H]1CN(C)C(=O)Nc1ccc(C(F)(F)F)cc1
-0.7	-53	-74	-13	i	CN1c2ccc(Br)cc2[C@H]2[C@H](CCN2S(=O)(=O)c2cccc(F)c2)[C@H]1CO
13	4	-6	-7.8	i	O=C(CSc1ccc(S(=O)(=O)N2CCCC2)cn1)Nc1ccc([N+](=O)[O-])cc1C(F)(F)F
-2.0	-2	-6	1.0	i	CCOC(=O)C(C#N)=CN1CCN(C(=O)CCCl)c2ccccc21
1.7	-4	-14	1.0	i	O=C(C[C@@H]1CC[C@H](NC(=O)Nc2ccc(C(F)(F)F)cc2)[C@H](CO)O1)NCc1cccc(F)c1

Some of the entries so far, with bars between the fields:
canonical_smiles | MLL AF4-AF9 inh | Ecoli rRNA inh | Ecoli rRNA inh OD600 | Ecoli rRNA inh RFP | FGF22 binding
C[C@@H]1CN([C@H](C)CO)C(=O)c2cc(C3=CCCCC3)cnc2O[C@@H]1CN(C)C(=O)c1cccc(F)c1 | -7.2 | 3 | 7 | 1.0 | i
CCCNC(=O)C[C@H]1CC[C@H]2[C@@H](COc3ccc(NC(=O)C4CCCC4)cc3C(=O)N2C)O1 | -3.4 | 2 | 3 | -1.0 | i

Later entries.
MLL AF4-AF9 inh	Ecoli rRNA inh	Ecoli rRNA inh OD600	Ecoli rRNA inh RFP	FGF22 binding	canonical_smiles
2.6	5	3	-0.3	i	COc1ccc(OC)c(CN2C(=O)CSCC2(C)C(=O)Nc2c(C)cccc2C)c1 (stereo not given)
-3.3	-1	-1	0.6	i	C[C@H](CO)N1C[C@H](C)[C@H](CN(C)C(=O)NC2CCCCC2)OCCCC[C@H](C)Oc2ccc(NS(=O)(=O)c3ccc(F)cc3)cc2C1=O
-0.6	-10	-5	2.6	i	O=C(Nc1ccc(F)c(Cl)c1)c1cc(C2CCCN(S(=O)(=O)c3cccs3)C2)on1 (stereo not given)
0.2	0	2	-3.3	i	O=C(C[C@H]1C[C@H]2c3cc(NC(=O)Cc4ccncc4)ccc3O[C@H]2[C@H](CO)O1)NCc1cc(F)ccc1F
0.1	-7	-6	0.6	i	CN1C[C@@H](O)COC[C@H]2O[C@H](CC(=O)NC3CCC3)CC[C@@H]21
-18	16	12	0.6	i	CN(C)CCNC(=O)c1ccc(-c2cnn(C)c2)c2ccoc12
-1.9&-3.4&-1.8	6&-3	19&-1	-1.7&-2.8	i	COCC#Cc1cnc2c(c1)C(=O)N([C@H](C)CO)C[C@H](C)[C@@H](CN(C)S(=O)(=O)c1ccccc1)O2
-0.8	-1	3	-0.5	i	O=S(=O)(N[C@H]1CC[C@H](CCn2cc(-c3ccc(F)cc3)nn2)O[C@@H]1CO)c1ccccc1F
2.2	0	0	1.3	i	O=C(NC1CCC1)[C@@H]1[C@@H](CO)[C@@H]2Cn3c(ccc(C4=CCCCC4)c3=O)[C@@H]2N1C(=O)C1CCOCC1
-2.2	4	10	-3.4	i	CO[C@H]1CN(C)C(=O)c2cccc(C#N)c2OC[C@H]2O[C@@H](CC[C@H]2OC)CCN(C)C(=O)[C@@H]1C
-0.7	-2	-1	51	i	O=C(CCCN1C(=O)/C(=C\c2cccs2)SC1=S)Nc1ccccc1O
-1.0	4	15	-3.3	i	O=C(c1ccc(F)cc1)N1CC(=O)N2[C@H](CO)[C@H](c3ccc(-c4cccnc4)cc3)[C@@H]2C1
-1.1	-2	-10	-0.9	i	O=C(NCC[C@H]1CC[C@@H](NS(=O)(=O)c2ccc(Oc3ccccc3)cc2)[C@@H](CO)O1)C1CC1
-9.2	6	1	20	i	C/C=C/c1cccc(-c2nc(C(=O)N(C)C)cc3c2[C@H](CCO)N([S@@](=O)C(C)(C)C)C3)c1
-2.3	0	-8	-2.2	i	CO[C@H](CN(C)S(=O)(=O)c1ccc(F)cc1)[C@H](C)CN(C(=O)Nc1ccccc1F)[C@H](C)CO
17	-3	-7	1.8	i	Cc1cccc(S(=O)(=O)N2CC[C@@H]3[C@@H](CO)Nc4ccc(C#Cc5cccnc5)cc4[C@@H]32)c1
-2.1&1.3	0&-1	1&-1	2.7&-2.9	i	CCOC(=O)CCCCCC(=O)Nc1ccc2c(c1)C(=O)N([C@@H](C)CO)C[C@H](C)[C@H](CN(C)S(=O)(=O)c1ccc(OC)cc1)OCCCC[C@H](C)O2
-3.3	3	0	-1.4	i	COc1ccc(NC(=O)Nc2ccc3c(c2)CC(=O)N([C@H](C)CO)C[C@@H](C)[C@H](CN(C)Cc2ccc(C(=O)O)cc2)O3)cc1
0.8	0	-5	1.0	i	COc1ccc(NC(=O)N(C)C[C@@H]2Oc3ccc(NC(=O)CCCN(C)C)cc3C(=O)N([C@H](C)CO)C[C@@H]2C)cc1
-15&-0.2&-1.5	2&12	3&14	-2.2&0.6	i	C[C@@H]1CN([C@@H](C)CO)C(=O)CCCn2cc(nn2)CO[C@H]1CN(C)C(=O)c1ccncc1
0.6	3	-16	5.8	i	C[C@@H]1CCCCO[C@H](CN(C)Cc2ccc(Cl)c(Cl)c2)[C@@H](C)CN([C@@H](C)CO)C(=O)c2cc(NS(=O)(=O)c3ccc(F)cc3)ccc2O1
-1.9	0	-11	-3.1	i	CC(C)NC(=O)N(C)C[C@@H]1Oc2cc(-c3ccccc3F)ccc2S(=O)(=O)N([C@@H](C)CO)C[C@H]1C
-3.3	6	-16	5.7	i	CC1(C)CC(=Cc2ccccc2[N+](=O)[O-])C(=O)c2ccccc21
3.5	-6	-45	-7.9	i	CCc1nc2ccc(C(=O)NCCCn3ccnc3)cn2c1N(C)CCC(C)C
-2.2	-15	14	-1.0	i	N#Cc1ccccc1NC(=O)COC(=O)/C=C/c1cn(-c2ccccc2)nc1-c1ccc(Cl)cc1

Random excerpt: two compounds from above.
MLL AF4-AF9 inh	Ecoli rRNA inh	Ecoli rRNA inh OD600	Ecoli rRNA inh RFP	FGF22 binding	canonical_smiles
0.6	3	-16	5.8	i	C[C@@H]1CCCCO[C@H](CN(C)Cc2ccc(Cl)c(Cl)c2)[C@@H](C)CN([C@@H](C)CO)C(=O)c2cc(NS(=O)(=O)c3ccc(F)cc3)ccc2O1
6.1	1	11	-1.0	i	CCC(=O)N1CC2(CCN(S(C)(=O)=O)CC2)c2c(n(C)c3cc(OC)ccc23)[C@@H]1CO

(next part)
MLL AF4-AF9 inh	Ecoli rRNA inh	Ecoli rRNA inh OD600	Ecoli rRNA inh RFP	FGF22 binding	canonical_smiles
-1.3	5	4	4.5	i	O=C(Cc1ccc(NC(=O)C2CCCN(C(=O)CCc3ccccc3)C2)cc1)Nc1ccc(C(=O)N2CCOCC2)cc1 (stereo not given)
4.8	-1	-6	6.8	i	Cc1cc(C)c(S(=O)(=O)NN=C2c3ccccc3[C@H]3Cc4csc[n+]4[C@@H]23)c(C)c1
1.9	-7	-27	1.7	i	CC1(C(=O)Nc2cccc(NS(C)(=O)=O)c2)CCN1Cc1ccccc1OC(F)F (stereo not given)
3.7	9	14	-4.2	i	O=C(c1ccccc1)N(CCCn1ccnc1)C(c1ccccc1)c1nc2ccccc2[nH]1 (stereo not given)
5.3	-5	5	16	i	C[C@@H]1CCCCO[C@H](CN(C)S(=O)(=O)c2ccc(Cl)cc2)[C@H](C)CN([C@@H](C)CO)C(=O)c2cc(NC(=O)c3ccncc3)ccc2O1
0.2	5	8	1.0	i	COc1ccc(NC(=O)N(C)C[C@@H]2Oc3ccc(NS(=O)(=O)c4ccc(F)cc4)cc3CC(=O)N([C@H](C)CO)C[C@@H]2C)cc1
-7.3	13	14	2.1	i	CN1CC(O)(C(O)C(O)C(O)CO)SC1=S (stereo not given)
-0.5	0	0	-3.2	i	C[C@H](CO)N1C[C@H](C)[C@@H](CN(C)S(=O)(=O)c2cn(C)cn2)OCCCC[C@H](C)Oc2ccc(NC(=O)Nc3ccccc3)cc2C1=O
-6.4	0	-5	3.0	i	C[C@H](CO)N1C[C@H](C)[C@@H](CN(C)S(=O)(=O)c2cccs2)Oc2ccc(NC(=O)Cc3ccccc3)cc2CC1=O
-1.4	2	1	-0.2	i	O=C(C[C@@H]1C=C[C@@H](NC(=O)Nc2ccc3c(c2)OCO3)[C@@H](CO)O1)NCc1ccc(F)cc1
-0.7	-2	-5	-2.6	i	COc1ccc(-c2[nH][nH]c(=O)c2NC(=O)c2ccc(C)cc2)cc1
-31	-1	-6	2.5	i	COc1cccc(-c2cnc(C(O)c3ccccc3OC)[nH]2)c1 (stereo not given)
9.1	-9	-23	17	i	COc1ccc(C#Cc2cnc3c(c2)C(=O)N([C@H](C)CO)C[C@@H](C)[C@H](CN(C)CC2CCCC2)O3)cc1
-1.2	7	4	-1.7	/	C=CCN1C(=O)c2n[nH]c(COC)c2C1c1cccc(C(F)(F)F)c1 (stereo not given)
11	-2	-5	-3.0	i	CN(C)C(=O)c1ccc(-c2ccc3c(c2)[C@@H]2[C@@H](CCN2C(=O)c2ccc(F)cc2)[C@H](CO)N3C)cc1

Already shown: two of the compounds above.
MLL AF4-AF9 inh	Ecoli rRNA inh	Ecoli rRNA inh OD600	Ecoli rRNA inh RFP	FGF22 binding	canonical_smiles
-1.2	7	4	-1.7	/	C=CCN1C(=O)c2n[nH]c(COC)c2C1c1cccc(C(F)(F)F)c1 (stereo not given)
11	-2	-5	-3.0	i	CN(C)C(=O)c1ccc(-c2ccc3c(c2)[C@@H]2[C@@H](CCN2C(=O)c2ccc(F)cc2)[C@H](CO)N3C)cc1
